# From PubChem BioAssay
# Mtb H37Rv – M. tuberculosis H37Rv growth inhibitors, H37Rv strain (AID 1626). M. tuberculosis H37Rv growth inhibition; higher % means a stronger effect. inhibition, % at 10 µM; hits with a dose series show IC50 in µM. 220,000 tested, 0.95% active;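 active means confirmed in a dose series; inconclusive means inhibition above 80% but not taken into the dose series; inactive means below 80% or under 30% at every dose of the series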;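 further: bacteria incubated seven days before Alamar blue readout; 0% = bacteria only wells and 100% = bacteria with antibiotic wells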
# RecA intein inh – Mtb RecA intein splicing inhibitors, primary screen, biochemical, fluorescence, HTS; cell-free RecA intein splicing; inhibition, %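 (about 9 µM by stock and volumes)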; 290,000 tested, 0.75% active; Protein RecA (Mycobacterium tuberculosis (strain ATCC 25618 / H37Rv)), P9WHJ3; in the data active means inhibition above about 30%; inconclusive means no clear call, values can overlap the other calls;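 further: 0% = vehicle wells and 100% = reference inhibitor control wells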
# Target sequence (P9WHJ3 whole entry, looked up): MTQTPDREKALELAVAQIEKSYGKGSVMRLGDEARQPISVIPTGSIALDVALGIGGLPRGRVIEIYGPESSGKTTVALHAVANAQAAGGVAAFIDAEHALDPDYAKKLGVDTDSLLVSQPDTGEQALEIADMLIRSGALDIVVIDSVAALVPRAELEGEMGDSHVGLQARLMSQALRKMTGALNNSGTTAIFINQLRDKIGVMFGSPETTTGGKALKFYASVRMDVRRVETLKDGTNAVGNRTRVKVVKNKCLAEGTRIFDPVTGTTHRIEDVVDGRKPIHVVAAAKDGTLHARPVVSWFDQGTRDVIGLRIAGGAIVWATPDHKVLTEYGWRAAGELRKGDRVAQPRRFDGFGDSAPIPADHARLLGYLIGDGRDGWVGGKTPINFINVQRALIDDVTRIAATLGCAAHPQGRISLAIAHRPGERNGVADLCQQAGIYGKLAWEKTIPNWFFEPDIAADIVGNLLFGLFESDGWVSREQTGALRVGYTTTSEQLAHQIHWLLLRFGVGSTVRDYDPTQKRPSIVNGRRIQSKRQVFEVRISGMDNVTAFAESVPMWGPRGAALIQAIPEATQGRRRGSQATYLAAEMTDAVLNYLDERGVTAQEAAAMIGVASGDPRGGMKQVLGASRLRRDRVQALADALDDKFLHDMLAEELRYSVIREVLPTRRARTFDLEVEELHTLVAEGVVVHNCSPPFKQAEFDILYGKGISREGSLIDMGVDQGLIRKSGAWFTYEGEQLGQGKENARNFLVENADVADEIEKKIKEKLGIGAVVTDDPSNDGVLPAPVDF
# YopH inh – YopH tyrosine phosphatase inhibitors, primary screen, biochemical, fluorescence Ex485/Em525. AID 898, 2007. YopH tyrosine phosphatase [Yersinia enterocolitica]. inhibition, %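 (about 10 µM by stock and volumes)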. 140,000 tested, 0.16% active;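 active means inhibition of 50% or more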;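 further: controls were vehicle for no effect and minimum signal wells for full effect; inactives centre near -20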
# Arbovirus inh – antivirals against arbovirus infection, primary screen, cell-based, full library, 10K replicate subset. 200,000 tested, 0.37% active. inhibition, % at 10 µM. arbovirus infection cell-based antiviral screen;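 active means inhibition from about 30%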;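 further: bluetongue infection of BSR cells; cell survival read as ATP light after 72 h; 0% = infected wells without compound and 100% = uninfected wells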
# Mtb bLac sens – beta-lactam sensitization of Mtb H37Rv, H37Rv; M. tuberculosis H37Rv growth with meropenem, percent inhibition; hits of this screen are not shown here; inhibition, % at 25 µM; 330,000 tested, 0.27% active;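 active means about 74% or more and at least 40 points above the plate without the antibiotic, then above 30% in a dose series; inconclusive means first-round hits that could not be retested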;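 further: growth measured after seven days incubation then overnight dye step; 0% = bacteria only wells and 100% = bacteria with antibiotic; twin plates without the antibiotic show which effects depend on it; some results filed as inactive read as strong as hits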
# * marks the source's active call; other numbers are inactive results; ? = inconclusive; nt = not tested or not shown. A portion of the library; count on the stated rates, not on these rows.
SMILES,Mtb H37Rv,RecA intein inh,YopH inh,Arbovirus inh,Mtb bLac sens
C=CCn1c(SCC(=O)Nc2ccccc2)nc2scc(-c3cccs3)c2c1=O,-4%,4.7,-16,6,2
Clc1ccccc1/C=C/C=N/Nc1nc(N2CCOCC2)nc(N2CCOCC2)n1,-7%,-3.1,nt,14,19
O=C(NCCCN1CCOCC1)C(=O)N/N=C/c1ccccc1,5%,-0.3,8,-4,-6
Cc1ccc(N2CC(C(=O)Nc3ccc(S(=O)(=O)Nc4nccs4)cc3)CC2=O)cc1 (configuration not stated),11%,-1.2,nt,2,36
Cc1nnc(C)n1/N=C/c1cccn1C,-3%,1.0,-14,-3,2
CC(C)n1cnc2c(NCc3ccc(S(N)(=O)=O)cc3)nc(NCc3ccc(S(N)(=O)=O)cc3)nc21,-4%,1.4,nt,nt,-12
COc1ccc(C(=O)Nc2ccc(C)cn2)cc1S(=O)(=O)N1CCCc2ccccc21,nt,-2.5,nt,nt,20
COc1ccc(OCc2ccc(/C=N\NC(=O)c3sccc3C)o2)cc1,nt,-2.1,nt,nt,5
O=C(O)C1=C[C@H](c2csc3ccccc23)C[C@H](OCCCCO)O1,-9%,1.2,nt,1,12
Cc1ccc(S(=O)(=O)NC(=O)Nc2ccccc2)cc1,-11%,1.0,nt,3,8
COc1ccc(-c2csc(NC(=O)C3CCN(c4ncnc5sc(C)c(C)c45)CC3)n2)cc1OC,nt,-2.4,nt,nt,-2
O=c1[nH]c(=O)n(Cc2ccco2)c2c1C(C(F)(F)F)(C(F)(F)F)N=C(CCc1ccccc1)N2,0%,2.2,-19,-3,-3
CCc1ccc2c(CN3CCN(Cc4ccccc4)CC3)cc(=O)oc2c1,nt,1.5,nt,nt,87
CCOc1ccc(C(=O)N2CCc3cc(OC)c(OC)cc3C2)cc1OCC,-3%,6.0,-52,0,-4
CCNc1nc(CC)nc2c1oc1ccccc12,0%,-5.3,-54,7,-6
CNc1nc(Cl)c(SC)c(NCc2ccc(F)cc2)n1,nt,3.0,nt,nt,1
Cc1ccc(NC(=O)OCc2cn(-c3ccc(Cl)cc3)nn2)cc1,nt,-0.6,-18,0,41
CCCCc1ccc(NC(=S)Nc2cccnc2)cc1,?,3.2,-15,11,90
O=C(CSc1ncnc2ccccc12)Nc1ccc2c(c1)OCO2,10%,1.5,-13,-6,-1
CCOC(=O)C1=C(COC(=O)CNC(=O)c2cccc(C)c2)NC(=O)NC1C (configuration not stated),nt,-2.0,nt,nt,-5
Cc1ccc(NCc2ccc(C)s2)cc1,nt,-1.2,nt,nt,-5
CC1SCC(=O)N(CC(=O)Nc2ccc3c(c2)OCO3)C1=O (configuration not stated),-5%,2.2,-25,-3,-3
CC1=C(C)C(OCCCl)N(c2cc(O)c(Cl)cc2F)C1=O (configuration not stated),1%,1.8,nt,nt,-9
CC(=O)Nc1ccc(C(=O)OCC(=O)Nc2ccc(Cl)cc2C(=O)c2ccccc2)cc1,9%,3.5,-15,3,4
CN(C(=O)CSc1nc2ccc(Br)cc2c(=O)n1Cc1ccco1)C1CCS(=O)(=O)C1 (configuration not stated),-10%,1.6,nt,nt,-8
CN1CCN(C(=O)c2cc(COc3ccccc3)on2)[C@@H](c2ccccc2)C1,nt,-2.6,nt,nt,-17
c1ccc(CN=C2NN=C(c3cc4ccccc4o3)CS2)cc1,10%,3.6,-26,-17,14
COc1ccc(OC)c(C(=O)Nc2c(O)ccc3ccccc23)c1,nt,-0.5,nt,nt,55
c1ccc(N2CCN(c3nnc(Cc4cccnc4)c4ccccc34)CC2)nc1,10%,-0.6,-40,-3,51
O=C(Cc1ccc(Cl)cc1)Nc1cccc(-c2nnc(-c3ccco3)o2)c1,-20%,-0.5,-50,-16,?
CN1CCN(c2ccccc2NC(=O)c2ccccc2F)CC1,4%,-0.1,nt,nt,-6
O=C1Cn2c(nc3ccccc32)-c2ccccc2N1,-14%,0.4,-34,1,4
CCCc1cc(=O)oc2cc(C)cc(OCC(=O)Nc3ccc(S(N)(=O)=O)cc3)c12,nt,-0.7,nt,nt,5
CCN(C(=O)Cc1ccc(Br)cc1)C1CCCCC1,-2%,4.5,-17,-4,-5
COc1ccc(N(C)S(=O)(=O)c2cccc(C(=O)Nc3ccc(-n4cnnn4)cc3)c2)cc1,8%,-1.8,-37,-6,-8
CCCNC(=S)N1CCC(C(=O)c2ccc(OC)cc2)CC1,-10%,-1.9,-36,5,4
CCC(CC)c1nnc(NC(=O)c2cc(C(=O)OC)cc([N+](=O)[O-])c2)s1,2%,-0.8,7,19,12
N#C/C(=C\c1ccccc1)C(=O)NC1CC1,nt,-0.1,nt,nt,-1
CC(=O)Nc1ccc(S(=O)(=O)N2CCC(c3nc4c(nnn4Cc4ccccc4Cl)c(=O)[nH]3)CC2)cc1,nt,-4.7,nt,nt,50
CCOc1ccc(N(CC(=O)NC(C(C)C)C(C)C)S(=O)(=O)c2ccc(OC)c(OC)c2)cc1,4%,0.3,nt,1,6
CCCCOc1ccc(N2C(=O)CC(NCCc3ccc(S(N)(=O)=O)cc3)C2=O)cc1 (configuration not stated),-24%,0.0,-16,1,-6
Cc1onc(-c2ccccc2Cl)c1C(=O)NCc1cccs1,3%,-1.5,-38,-4,-10
CC(C)NC(=O)C1CCN(C2CCN(Cc3cn[nH]c3-c3ccccc3)CC2)CC1,3%,0.6,nt,9,3
Nc1nc(-c2ccc(-c3ccccc3)cc2)cs1,-1%,4.5,nt,-11,55
CCOc1ccc(N2C(=O)C3Sc4[nH]c(=O)sc4C(c4ccc(OC)c(OC)c4)C3C2=O)cc1 (configuration not stated),-8%,-3.8,nt,nt,-1
COC(=O)C1=C(C)N(C)C(=O)/C1=C\c1ccco1,0%,-2.5,-23,4,-6
CN1CCC(N(C)S(=O)(=O)c2ccc(NC(=O)COc3ccc(F)cc3)cc2)CC1,nt,-0.2,nt,nt,-8
O=S(=O)(Cc1ccc(Cl)cc1)Nc1ccc2c(c1)OCO2,2%,2.4,-7,-2,5
CCOc1ccc(C(=O)Nc2ccc(C(F)(F)F)n(C)c2=O)cc1,4%,nt,19,3,-11
O=[N+]([O-])c1ccc([C@H](O)[C@H](CO)N=Cc2ccccc2O)cc1,-4%,-0.8,-6,2,-2
Cc1ccccc1Cn1c(=O)n(CCCC(=O)NCc2ccco2)c(=O)c2ccccc21,5%,-0.3,-31,-13,24
N#C/C(=C/c1ccc(C(=O)O)cc1)C(=O)NCc1ccccc1,-4%,-0.9,-10,-7,-6
COc1cc(NC(=O)c2ccccc2)c(OC)cc1NC(=O)CSc1[nH]c(=O)cc(C)c1C#N,nt,-3.2,nt,nt,3
CC(C)CNC(=O)c1cc2nc3c(c(C(F)(F)F)n2n1)CCc1ccccc1-3,-4%,0.7,-21,6,30
COc1ccc(-c2cc(C(=O)Nc3ccc(S(=O)(=O)Nc4onc(C)c4C)cc3)c3ccccc3n2)cc1OC,17%,-5.9,nt,nt,70
COc1ccc2oc(C(=O)N(Cc3ccco3)Cc3cccs3)c(C)c2c1,nt,-4.1,nt,nt,57
O=C(NN1C(=O)C2C3CCC(O3)C2C1=O)c1ccc(Cl)cc1 (configuration not stated),-2%,0.4,-22,2,2
CC(OC(=O)c1cc(S(=O)(=O)N2CCOCC2)ccc1F)C(=O)NCc1ccc2c(c1)OCO2 (configuration not stated),nt,-1.2,nt,nt,1
Cc1cccn2cc(-c3cccc(S(=O)(=O)N4CCCCC4)c3)nc12,nt,2.4,nt,nt,-1
CC(=O)O[C@H]1CCC2C3CCC4=CC(=O)CCC4=C3C=C[C@@]21C (some centres not stated),nt,-12,nt,nt,4

# More entries.
SMILES,Mtb H37Rv,RecA intein inh,YopH inh,Arbovirus inh,Mtb bLac sens
O=c1c(Cc2ccc(Cl)cc2)c(O)ccn1Cc1ccncc1,3%,-0.4,nt,5,-10
CCN(CC)c1ccc(CC(=O)NC(C)Cc2ccccc2)cc1 (configuration not stated),4%,-0.6,-26,2,-6
Cc1cc2c(cc1S(=O)(=O)N1CCN(c3ccc(Cl)cc3)CC1)OCCN2C,nt,8.8,nt,nt,-16
Cc1c(C(=O)OCC(=O)N2CCCC2)cccc1[N+](=O)[O-],nt,-0.3,nt,nt,0
Cc1nc(Cc2ccc(OC(C)C)cc2)[nH]c(=O)c1CC(=O)O,-4%,nt,nt,-3,-12
Cc1nc(C(F)(F)F)c(C(=O)N/N=C(\N)c2cccnc2)s1,0%,0.6,nt,3,1
Cc1ccccc1-n1cc(CNC(=O)CCc2nnc(CCc3ccccc3)o2)cn1,-3%,1.4,nt,11,-2
CCC(CC)NC(=O)C1CCN(S(=O)(=O)c2cccs2)CC1,-2%,0.9,3,11,0
CCOc1ccccc1CN1CCN(Cc2ccc(C)o2)CC1CCO (configuration not stated),-3%,1.0,nt,-7,0
CCc1nc(SCc2ccc(C(=O)OC)o2)c2c(=O)n(C)c(=O)n(C)c2n1,-9%,1.9,-43,4,0
CN1CCN(CC(=O)N2N=C(c3cccs3)CC2c2ccco2)CC1 (configuration not stated),-5%,1.5,-44,2,4
CC(NC(=O)C1CC2CCCC(C1)C2=O)c1ccccc1 (configuration not stated),1%,4.4,-13,-1,2
C/C(Cl)=C\Cn1c(O)c(N=NC(N)=S)c2cc(Br)ccc21,-2%,21,nt,-26,44
COc1cccc(C(C)NC(=O)C2CCCC2)c1 (configuration not stated),nt,-1.2,nt,nt,-5
Cc1ccc(Nc2nc(NCC3CCCO3)nc(N)c2[N+](=O)[O-])cc1C (configuration not stated),-1%,-8.1,-22,-12,4

# Ordered by count of non-hydrogen atoms (smallest number first): some entries from above
SMILES,Mtb H37Rv,RecA intein inh,YopH inh,Arbovirus inh,Mtb bLac sens
CC(NC(=O)C1CC2CCCC(C1)C2=O)c1ccccc1 (configuration not stated),1%,4.4,-13,-1,2
CN1CCN(CC(=O)N2N=C(c3cccs3)CC2c2ccco2)CC1 (configuration not stated),-5%,1.5,-44,2,4
Cc1ccccc1-n1cc(CNC(=O)CCc2nnc(CCc3ccccc3)o2)cn1,-3%,1.4,nt,11,-2

# More records follow.
SMILES,Mtb H37Rv,RecA intein inh,YopH inh,Arbovirus inh,Mtb bLac sens
CCN(CC)C(=O)c1sc(N2C(=O)Nc3ccccc3N2O)c(C(=O)OC)c1C,-11%,-0.1,nt,6,-5
CCc1ccccc1NC(=S)N1N=CCC1c1ccccc1 (configuration not stated),9%,1.2,nt,1,-9
Cc1cc(C)n2c(SCc3ccccc3Cl)nnc2n1,6%,-6.9,-23,-1,-5
COCC(=O)OCC(=O)c1cc(C)n(-c2ccc(Br)cc2)c1C,7%,1.4,nt,2,-5
C=CCSc1ncccc1C(=O)NCc1ccc(C)cc1,10%,2.1,18,-4,37
O=C(NCC1(N2CCCCC2)CCCCC1)c1cccc(NS(=O)(=O)c2ccccc2)c1,nt,-2.4,nt,nt,-2
Cc1occc1-c1nnc(SCC(=O)NCCc2ccccc2)n1Cc1ccccc1,-8%,4.9,-26,-2,2
O=C(NCc1ccc(Cl)cc1)c1cc2ccccn2n1,6%,5.1,-49,7,0
COc1cc(CN2CCNC(=O)C2CC(=O)N2CCc3ccccc3C2)cc(OC)c1 (configuration not stated),6%,-2.0,nt,3,-11
O=C(NCC1CC1)c1ccc(Oc2cc(Cl)cc(Cl)c2)o1,3%,7.0,nt,nt,4
O=C(NCCCN1CCCCCC1)c1ccc(CS(=O)(=O)Cc2ccccc2F)o1,1%,nt,-6,-7,nt
OCCC1CN(Cc2ccc3c(c2)CCO3)CCN1Cc1ccc(F)cc1 (configuration not stated),-1%,0.2,nt,-1,-10
COc1ccc(C(Cl)=C(c2ccc(OC)cc2)c2ccc(OC)cc2)cc1,1%,0.4,-9,7,-12
Cc1ccc(S(=O)(=O)N2CCCCC2)cc1NC(=O)CNc1ccc(C(F)(F)F)cc1,nt,0.9,nt,nt,-6
Cc1ccccc1Cn1ccc(NC(=O)c2nc3ncccn3n2)n1,0%,1.0,-1,-2,-5
CS(=O)(=O)N1CCC(C(=O)NCCc2ccccc2)CC1,-4%,-1.8,-5,8,8
Cc1ccc(S(=O)(=O)N2CCCC2CNC(=O)C(=O)NCc2ccccn2)cc1 (configuration not stated),nt,-1.7,nt,nt,-4
CCOC(=O)N1CCN(c2c(NCc3ccc(Cl)cc3)c(=O)c2=O)CC1,5%,-1.1,-20,-15,-3
CCC(=O)Nc1ccc(S(=O)(=O)NCc2ccco2)cc1,3%,-3.1,12,1,-15
CCCCc1c(C)nc2ccc(OC)cc2c1SCCC(=O)O,nt,0.5,nt,nt,-4
